High-throughput results deposited in PubChem by National Center for Advancing Translational Sciences (NCATS).
Menin-MLL FL inh = qHTS Assay for Inhibitors Targeting the Menin-MLL Interaction in MLL Related Leukemias: Competition With Fluorescein Labeled MLL-derived Peptide; Fluorescence polarization, fluorescein-MLL peptide displacement from menin; FP activity change, % at 61.4 µM; 290,000 tested, under 10 active; inconclusive = falling polarisation curve, or a change in total fluorescence; inactive = total fluorescence flat and polarisation flat or rising; no compound was filed as active; the % refers to the polarisation; negative = inhibition;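 also: % of control where 0% means no effect; inhibitors lower the polarisation; unlabelled MLL peptide was the positive control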
ClpP mod = qHTS Assay for Activators of ClpP | purified B. subtilis ClpP, FRET peptide cleavage, 20 min | Potency, µM (highest dose often 57.5 µM), without a hit: at the highest dose activity change, negative = active | hit rate 1.9% among 340,000 | AID 651965, 2013; active = well fitted falling curve with a large enough effect; inconclusive = small, poorly fitted or top-dose-only effect; inactive = no such curve, though single readings can be large or run the other way; also: potency is read from the fitted curve at half-maximal effect; the source files actives as falling curves though it sought activators and does not explain the sign; nearly all actives have a fitted effect of over 65% in size; many hits overshoot -100%
Target sequence (P80244 whole entry, looked up): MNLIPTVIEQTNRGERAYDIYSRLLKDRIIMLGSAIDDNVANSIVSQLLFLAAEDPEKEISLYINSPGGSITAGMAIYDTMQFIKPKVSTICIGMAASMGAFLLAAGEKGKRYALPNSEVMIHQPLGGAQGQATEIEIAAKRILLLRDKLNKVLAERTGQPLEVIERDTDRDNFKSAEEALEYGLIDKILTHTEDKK
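Purified B. subtilis ClpP, 10 microg/mL final in Tris/HCl pH8 with KCl, BSA, glycerol and Tween-20, cleaved an Abz/nitrotyrosine-quenched decapeptide. Fluorescence (ex 320, em 430) was read at 0 and 20 min at room temperature. Delta was normalized to 5.8 microM ADEP and DMSO/no-enzyme controls.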
TRPML1 inh = qHTS for Inhibitors of the Human Mucolipin Transient Receptor Potential 1 (TRPML1) | TRPML1-inducible cells, Ca2+ dye fluorescence, FDSS; active compounds read low; inhibition of EC80 agonist-evoked calcium signal | activity change, negative = inhibition, % (no concentration beside the values) | hit rate 0.02% among 390,000; in the data active means activity change below about -50%; inconclusive means about -30% to -50%; inactive means above about -30%;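 also: stimulus is agonist 54-4 at its EC80 concentration; % is scaled to controls: 0 for no effect and ±100 for the full control effect; compound concentration not given in the record; the text of the record puts the active cut at -80%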
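Calcium fluorescence in TRPML1-DL cells induced overnight with Tet: a 110 s read after compound pin addition, then a 110 s antagonist read after challenge with 54-4 at 4 uM final (EC80).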
gsp antag = qHTS for Antagonists of gsp, the Etiologic Mutation Responsible for Fibrous Dysplasia/McCune-Albright Syndrome: qHTS; gsp-mutant cells, cAMP HTRF, 30 min; control for the full effect not named in the record; AID 624288, 2012; hit rate 0.4% among 340,000; Potency, µM (top dose mostly 76.9 µM), inactives show at the highest dose activity change, negative = inhibition, most hits filed as inhibitors; active = falling curve of any shape with a large fitted effect; inconclusive = falling curve, mostly with a smaller effect; inactive = flat or rising curve; cell line not stated here;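 also: intracellular cAMP measured with PDE inhibitor Ro 20-1724 present during compound exposure; potency is read from the fitted curve at half-maximal effect; % is scaled to controls: 0 for no effect and ±100 for the full control effect; nearly all actives have a fitted effect of over 65% in size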
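Cells in G418 medium, seeded 16-24 h, 37C; buffer exchange to DPBS + 1 mM CaCl2, 0.5 mM MgCl2, 0.05% BSA; cpds in DMSO + […] (300 uM stock), 30 min 37C; HTRF cAMP detection.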
TRPV1 potentiator = HTS Assay for Compounds that Act as Potentiators of the Vanilloid Receptor 1; potentiation, % at 8.33 µM; Transient receptor potential cation channel subfamily V member 1 (Homo sapiens), Q8NER1; TRPV1-expressing cells, Fluo-8 calcium influx, capsaicin EC20 potentiation; host cell line not named in the record; control for the full effect not named in the record; hit rate 0.02% among 320,000; active means potentiation above 80%; inconclusive means 30% to 80%; inactive means below 30%; also: 0% is about no effect
Target sequence (Q8NER1 whole entry, looked up): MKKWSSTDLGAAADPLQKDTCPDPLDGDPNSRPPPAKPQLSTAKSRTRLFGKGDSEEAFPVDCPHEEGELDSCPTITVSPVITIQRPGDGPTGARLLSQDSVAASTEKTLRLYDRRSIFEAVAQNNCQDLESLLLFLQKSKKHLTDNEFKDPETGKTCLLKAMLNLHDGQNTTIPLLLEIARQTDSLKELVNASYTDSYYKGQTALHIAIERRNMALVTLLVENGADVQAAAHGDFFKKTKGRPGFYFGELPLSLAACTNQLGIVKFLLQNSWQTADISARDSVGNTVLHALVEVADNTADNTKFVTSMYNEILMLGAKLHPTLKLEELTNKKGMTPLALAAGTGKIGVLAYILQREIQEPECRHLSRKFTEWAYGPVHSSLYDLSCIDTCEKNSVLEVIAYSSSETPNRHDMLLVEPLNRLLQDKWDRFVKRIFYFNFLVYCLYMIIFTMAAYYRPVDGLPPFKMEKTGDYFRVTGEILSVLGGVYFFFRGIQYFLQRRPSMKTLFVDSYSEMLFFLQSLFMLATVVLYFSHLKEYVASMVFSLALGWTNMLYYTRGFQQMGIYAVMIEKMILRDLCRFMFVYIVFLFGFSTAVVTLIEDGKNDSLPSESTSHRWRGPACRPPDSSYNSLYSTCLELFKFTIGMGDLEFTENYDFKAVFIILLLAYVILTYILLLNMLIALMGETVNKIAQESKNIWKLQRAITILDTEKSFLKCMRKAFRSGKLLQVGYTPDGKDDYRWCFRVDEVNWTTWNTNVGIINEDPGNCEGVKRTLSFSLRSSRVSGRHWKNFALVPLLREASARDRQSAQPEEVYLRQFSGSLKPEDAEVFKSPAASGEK
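Cells expressing TRPV1 were dye-loaded with Fluo-8 and read kinetically: 10 s baseline, 3 min after compound (agonist portion), then 2 min after EC20 capsaicin (allosteric enhancer portion). Calcium-bound dye fluorescence at 480/520 nm.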
Sfp inh = qHTS Assay for Inhibitors of Bacillus subtilis Sfp phosphopantetheinyl transferase (PPTase). Biochemical Sfp PPTase activity, qHTS. hit rate 3.5% among 310,000. 4'-phosphopantetheinyl transferase ffp (Bacillus subtilis), Q9F4F7. Potency, µM, without a hit: max response, negative = inhibition, most hits filed as inhibitors; active = well fitted inhibition curve with a large enough effect; inconclusive = small, poorly fitted or top-dose-only effect, or another doubt; inactive = no such curve, though single readings can be large or run the other way;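 also: the enzyme is Sfp with the accession as filed and its product quenches rhodamine fluorescence; potency is read from the fitted curve at half-maximal effect; 0% = enzyme reaction without inhibitor and -100% = no enzyme wells; top concentration of the series not given in the record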
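Fluorescence-quenching assay: 15 nM Sfp-PPTase preincubated 15 min at room temperature with compound, then 5 uM rhodamine-CoA and 12.5 uM BHQ-2-labelled YbbR peptide added. Fluorescence (ex 525/em 598 nm) read at start and after 30 min; difference gives rate.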
gsp agonist = qHTS for Agonist of gsp, the Etiologic Mutation Responsible for Fibrous Dysplasia/McCune-Albright Syndrome: qHTS | hit rate 0.13% among 340,000 | AID 624287, 2012 | gsp mutant cells, cAMP HTRF, 30 min; control for the full effect not named in the record | Potency, µM (series often up to 76.9 µM), inactives show top-dose activation (cAMP increase), actives largely listed as activators; active = well fitted activation curve with a large enough effect; inconclusive = small, poorly fitted or top-dose-only effect, or another doubt; inactive = no such curve, though single readings can be large or run the other way; cell line not stated here;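 also: phosphodiesterase inhibitor Ro 20-1724 added with compounds to block cAMP breakdown; potency is read from the fitted curve at half-maximal effect; nearly all actives have a fitted effect of over 60% in size; about a fifth of the inactives were tested at one dose only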
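Cells stably selected in G418 were plated at 2000/well, grown 16-24 hr, then given compounds in DMSO with the PDE inhibitor […] (300 uM solution added) for 30 min at 37C; cAMP was read by HTRF.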
The depositor's hits bear a star; ? = inconclusive; . = no result given; & = joins results of further samples; [ ] = dose if it differs, or a comment.

SMILES	Menin-MLL FL inh	ClpP mod	TRPML1 inh	gsp antag	TRPV1 potentiator	Sfp inh	gsp agonist
Cc1sc(NC(=O)c2ccccc2)c(C#N)c1-c1ccccc1	3.9	-0.5%	-8	-13%	7	-10%	10%[15.4 µM]
CC12CCC(c3n[nH]c(=S)nc31)C2(C)C (centres undefined)	0.4	-0.1%	17	29%	-3	?	-27%
COc1ccccc1N1CC(C(=O)Nc2nnc(SCC(=O)NCC3CCCO3)s2)CC1=O (centres undefined)	.	0.0%	-1	-8%	5	50µM*	0%
O=C(NCCCN1CCCC1=O)Nc1ccc([N+](=O)[O-])cc1	-2.7	0.2%	.	0%	-4	6%	6%
Cn1ncc(Br)c1C(=O)NC1CCCC1	.	-0.3%	50	15%	7	16%	10%
CC(=O)NC(Cc1ccccc1F)C(=O)NC1CCN(C(=O)c2cnccn2)CC1 (centres undefined)	0.4	-1.1%	43	4%	7	9%	3%
Cc1c(Cl)c(C(F)(F)F)nn1CC(=O)NN	0.0	.	6	6%	5	13%	?
CCCN1CCN(C(=O)c2cc(COc3ccc(F)c(F)c3)on2)CC1	0.2	-1.5%	0	6%	0	5%	15%
CCC(C)c1ccc(-n2c(=O)c3ccccc3n3c(=S)[nH]nc23)cc1 (centres undefined)	0.4	.	-3	-5%	?	?	11%
CCOc1cc(/C=N/NC(=O)c2cccs2)ccc1OC(=O)N1CCOCC1	2.9	.	11	-3%	-7	-16%	-4%[15.4 µM]

SMILES	Menin-MLL FL inh	ClpP mod	TRPML1 inh	gsp antag	TRPV1 potentiator	Sfp inh	gsp agonist
O=C(CSc1ccccn1)N1CCCC(Nc2ccc(F)c(F)c2)C1 (centres undefined)	.	1.7%	-3	-6%	-10	-11%	-9%
C[C@H](CO)N1C[C@H](C)[C@H](CN(C)C(=O)c2ccccc2)OCc2cnnn2CCCC1=O	.	-1.3%	36	.	.	.	-39%
O=C(Nc1cnn(Cc2c(Cl)cccc2Cl)c1)C(c1ccccc1)c1ccccc1	5.7	1.3%	5	-2%	21	7%	12%
Cc1ccc(N(C)C(=O)C2CCCN2S(=O)(=O)c2ccc3c(c2)n(C)c(=O)c(=O)n3C)cc1 (centres undefined)	0.3	-17%	8	-11%	6	24%	1%
O=C(O)CSc1nc(-c2ccccc2)c(-c2ccccc2)[nH]1	8.5	4.6%	15	2%	4	?	-35%[inhibitor]
CCc1sc(-c2c(C#N)c(N)nc3c2CCCCCC3)cc1[N+](=O)[O-]	0.6	-2.0%	21	-6%	-13	31%[activator]	-15%
COc1cc(NC(=O)c2ccc([N+](=O)[O-])o2)ccc1NC(=O)c1ccco1	0.0	0.6%	-10	-5%	-6	-2%	-5%
C#CC[N+](C)(C)CC#Cc1ccccc1	-1.3	.	-7	15%	-3	-5%	-7%[15.4 µM]
Cc1ccccc1-n1c(=O)n(Cc2ccco2)c(=O)c2[nH]cnc21	1.0	0.2%	-9	-16%	13	6%	21%
Cc1cc(C)n2nc(C(=O)OCC(=O)N(CC(C)C)CC(C)C)nc2n1	-4.8	-1.1%	12	-3%	1	6%	14%[15.4 µM]

SMILES	Menin-MLL FL inh	ClpP mod	TRPML1 inh	gsp antag	TRPV1 potentiator	Sfp inh	gsp agonist
C(=N\N1CCN(Cc2ccccc2)CC1)/c1cccs1	6.2	-1.1%	4	-4%	4	10%	1%
O=C(NCC(=O)N(Cc1ccccc1)C(C(=O)NC1CCCC1)c1ccco1)c1ccco1 (centres undefined)	2.8	0.1%	-4	3%	-9	18%	2%
COCc1cc(C)n(CC(=O)NC(C)c2ccccc2)c(=O)c1C#N (centres undefined)	-0.4	16µM*	-13	14%	-1	-11%	?
COc1ccc(CCNC(=O)c2ccc(NS(=O)(=O)c3c(C)noc3C)cc2)cc1OC	1.8	-3.4%	-5	-4%	?	12%	-4%
COc1ccc(Cn2nnnc2CN2CCC(O)(c3ccc(F)cc3)CC2)cc1	2.2	-2.0%	4	-17%	-10	15%	13%[15.4 µM]
O=C(CCN1CCCCO1)N1CCCC(N2CCN(c3ccc(F)cc3)CC2)C1 (centres undefined)	7.2	1.9%	-3	5%	1	16%	?
CCN(Cc1ccccc1)S(=O)(=O)c1ccc(C(=O)Nc2nnc(-c3ccccc3OC)o2)cc1	1.4	1.2%	8	-5%	15	-5%	-33%[inhibitor]
CC(=O)c1ccc2c(c1)OCCOCCOc1ccccc1OCCOCCO2	2.7	.	2	-2%	-2	2%	7%
CCC(CC)C(=O)Nc1cc(C)cc(C)c1	-0.7	-1.3%	11	4%	-17	10%	12%
Cc1ccc(-c2nnn(CC(=O)N(CCO)C(C(=O)NC3CCCCC3)c3ccncc3)n2)o1 (centres undefined)	-2.7	.	-3	8%	8	2%	6%[15.4 µM]

4 of the compounds above, field by field.
SMILES: O=C(NCC(=O)N(Cc1ccccc1)C(C(=O)NC1CCCC1)c1ccco1)c1ccco1 (centres undefined)
  Menin-MLL FL inh: 2.8
  ClpP mod: 0.1%
  TRPML1 inh: -4
  gsp antag: 3%
  TRPV1 potentiator: -9
  Sfp inh: 18%
  gsp agonist: 2%

SMILES: COCc1cc(C)n(CC(=O)NC(C)c2ccccc2)c(=O)c1C#N (centres undefined)
  Menin-MLL FL inh: -0.4
  ClpP mod: 16µM*
  TRPML1 inh: -13
  gsp antag: 14%
  TRPV1 potentiator: -1
  Sfp inh: -11%
  gsp agonist: ?

SMILES: COc1ccc(CCNC(=O)c2ccc(NS(=O)(=O)c3c(C)noc3C)cc2)cc1OC
  Menin-MLL FL inh: 1.8
  ClpP mod: -3.4%
  TRPML1 inh: -5
  gsp antag: -4%
  TRPV1 potentiator: ?
  Sfp inh: 12%
  gsp agonist: -4%

SMILES: COc1ccc(Cn2nnnc2CN2CCC(O)(c3ccc(F)cc3)CC2)cc1
  Menin-MLL FL inh: 2.2
  ClpP mod: -2.0%
  TRPML1 inh: 4
  gsp antag: -17%
  TRPV1 potentiator: -10
  Sfp inh: 15%
  gsp agonist: 13%[15.4 µM]

Next part:
SMILES	Menin-MLL FL inh	ClpP mod	TRPML1 inh	gsp antag	TRPV1 potentiator	Sfp inh	gsp agonist
CCCn1nc(C(=O)Nc2cccc(C(=O)OC)c2)c2ccccc2c1=O	-1.2	0.6%	-18	-39%	6	0%	13%
Cc1cc(=O)oc2cc(OCC(=O)Nc3nnc(CC(C)C)s3)ccc12	7.6	?	-10	-3%	8	1%	?
C[C@@H]1CN([C@H](C)CO)C(=O)c2cccc(NC(=O)c3ccncc3)c2O[C@@H]1CN(C)Cc1ccc(C(=O)O)cc1	.	-3.6%	1	3%	.	.	.
CCCCN1CCc2[nH]c(=S)[nH]c(=O)c2C1	-0.9	-26%	-13	5%	-11	?	12%
CCOC(=O)C(C(=O)Nc1ccccn1)C1CCCCC1 (centres undefined)	4.0	28µM*	17	9%	-2	-17%	?
CC1=CC(C)C2C(=O)N(c3ccccc3)C(=O)C2C1 (centres undefined)	-1.1	1.1%	16	-1%	2	5%	-35%[inhibitor]
Cc1ccccc1S(=O)(=O)N1CCN(C)CC1	0.0	-0.8%	-10	8%	23	6%	3%[15.4 µM]
COc1ccccc1C=NN1CCCCCC1	.	0.8%	32	-9%	.	.	-11%[15.4 µM]
O=C(CN1C(=O)c2ccccc2S1(=O)=O)Nc1ccc([N+](=O)[O-])cc1	.	-3.5%	40	2%	.	.	-12%
CCOC(=O)c1nnn(-c2nonc2N)c1CN(C)C1CCCCC1	1.1	1.4%	22	3%	-3	22%	-34%[inhibitor]

SMILES	Menin-MLL FL inh	ClpP mod	TRPML1 inh	gsp antag	TRPV1 potentiator	Sfp inh	gsp agonist
CC(C)c1cccc(C(C)C)c1NC(=O)CN1C(=O)NC2(CCCC2)C1=O	0.6	.	1	9%	-4	3%	-13%[15.4 µM]
O=C(COC(=O)C1CC1)Nc1ccc(N=Nc2ccccc2)cc1	0.6	-1.7%	-9	0%	-2	4%	4%
CCNC(=O)NC(=O)C(C)Sc1nc2ccccc2c(=O)n1-c1cccnc1 (centres undefined)	-2.5	.	15	17%	8	2%	28%[15.4 µM]
N#CCCN1CCN(S(=O)(=O)c2ccc3c(c2)OCCCO3)CC1	4.3	0.5%	10	11%	18	1%	18%
CCSc1nnc(NC(=O)CCC2CCCCC2)s1	.	-4.5%	-14	5%	.	.	20%
O=C(Cn1c2[n+](c3ccc(C(F)(F)F)cc31)CCCCC2)c1ccc2c(c1)OCCO2	-4.4	-8.7%	-17	4%	7	14%	9%
COc1cc(-c2cc(-c3ccc(N)cc3)[nH]c(=O)c2C#N)cc(OC)c1OC	?	.	20	18%	9	18%	0%
O=C(COC(=O)CNC(=O)c1ccc(Cl)cc1)NC1CCCCCC1	.	-1.1%	6	4%	-6	.	-8%
Cc1oc(-c2ccccc2Cl)nc1CSCC(=O)O	-0.5	-5.3%	22	-11%	.	26%	6%
Cc1ccc2c(NC(=O)c3ccco3)cccc2n1	-3.4	0.4%	-10	-11%	12	5%	?
O=C(c1cc(-c2cccc(Cl)c2)on1)N1CCN(c2ccccc2)CC1	-2.3	-1.5%	63&14	8%	-4	0%	6%
CC(C)Cc1ccc(-c2cc(=O)[nH][nH]2)cc1	-2.1	.	-13	9%	8	3%	3%[15.4 µM]
CCN(CC)S(=O)(=O)c1ccc(NS(=O)(=O)c2ccc(C)c(C)c2)cc1	1.5	-0.1%	-7	?	3	15%	-2%
